# Compound activity deposited in PubChem BioAssay by National Center for Advancing Translational Sciences (NCATS).
# RE007 growth inh – qHTS Assay for Inhibitors of the HIV-1 protein Vpr. S. pombe RE007 Vpr strain, BacTiter-Glo ATP luminescence, 24 h; control for the full effect not named in the record. Potency, µM (highest dose often 92.2 µM), for inactives: top-dose activity change, negative = less growth. 0.21% of 360,000 active; active = well fitted falling curve with a large enough effect; inconclusive = small, poorly fitted or top-dose-only effect; inactive = no such curve, though single readings can be large or run the other way;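 further: on the % scale 0 is the no-effect control and ±100 the full control effect; nearly all actives have a fitted effect of over 50% in size; the assay follows cell death caused by Vpr and the record does not say whether a fall means rescue or toxicity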
#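 Fission yeast RE007 carrying one integrated HIV-1 vpr copy, seeded at OD 0.01 in PMG+AL medium with 23 nL pinned compound. Grown 24 h at 30 degrees; viability read by BacTiter-Glo luminescence after 5 min.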
# Cruzain inh Det – qHTS Assay for Promiscuous and Specific Inhibitors of Cruzain (with detergent) | purified cruzain, Z-FR-AMC fluorescence, 0.01% Triton | Potency, µM, inactives show max response, negative = inhibition, most hits filed as inhibitors | 0.43% of 200,000 active | AID 1478, 2009;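 further: plate controls were neutral wells for no effect and buffer without enzyme for full effect; nearly all actives have a fitted effect of over 40% in size; top concentration of the series not given in the record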
# Target sequence (P25779 123-467 limits assumed): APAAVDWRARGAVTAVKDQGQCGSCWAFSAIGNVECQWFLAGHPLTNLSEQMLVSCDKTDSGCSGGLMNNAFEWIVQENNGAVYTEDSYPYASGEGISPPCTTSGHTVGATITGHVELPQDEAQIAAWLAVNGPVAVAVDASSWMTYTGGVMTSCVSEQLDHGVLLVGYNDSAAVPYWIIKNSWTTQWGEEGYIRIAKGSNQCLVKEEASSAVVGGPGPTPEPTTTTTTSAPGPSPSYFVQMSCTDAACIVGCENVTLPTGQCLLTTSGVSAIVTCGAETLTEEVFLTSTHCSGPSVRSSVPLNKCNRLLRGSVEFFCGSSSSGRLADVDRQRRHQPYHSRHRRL
#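 Sodium acetate buffer (100 mM, pH 5.5) containing 5 mM DTT and 0.01% Triton X-100 hosted 1.5 nM cruzain and test compound for 15 min at room temperature. Cleavage of 2 uM Z-FR-AMC was then tracked by fluorescence.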
# LASV entry inh – qHTS for Inhibitors of binding or entry into cells for Lassa Virus; Lassa virus pseudotype entry inhibition, cell reporter; control for the full effect not named in the record; Potency, µM (series often up to 37.9 µM), for inactives: at the top dose activity change, negative = inhibition, actives largely listed as inhibitors; 1.2% of 300,000 active; active means well fitted inhibition curve with a large enough effect; inconclusive means small, poorly fitted or top-dose-only effect, or effect the other way; inactive means flat fitted curve, though single readings scatter; tested in HEK293 cells; further: on the % scale 0 is the no-effect control and ±100 the full control effect; nearly all actives have a fitted effect of over 50% in size; luciferase read-out
# Cruzain inh noDet – qHTS Assay for Promiscuous and Specific Inhibitors of Cruzain (without detergent); purified cruzain, Z-FR-AMC fluorescence, no detergent; Potency, µM, without a hit: max response, negative = inhibition, most hits filed as inhibitors; 2.3% of 200,000 active;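 further: plate controls were enzyme without inhibitor for no effect and buffer without enzyme for full effect; nearly all actives have a fitted effect of over 40% in size; top concentration of the series not given in the record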
#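 Detergent-free condition (0.00005% Triton X-100) in acetate buffer pH 5.5 with DTT. 1.5 nM enzyme and compound were pre-mixed 15 min, then 2 uM Z-FR-AMC substrate added; reaction progress from fluorescence change between first and third reads (60 s).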
# SARS PLP yeast – qHTS of Yeast-based Assay for SARS-CoV PLP; Potency, µM (highest dose often 32.9 µM), for inactives: top-dose activity, positive = growth rescue; 0.19% of 330,000 active; S. cerevisiae expressing SARS-CoV PLpro, growth rescue; control for the full effect not named in the record; active means well fitted rising curve with a large enough effect; inconclusive means small, poorly fitted or top-dose-only effect; inactive means no such curve, though single readings can be large or run the other way; further: 0% is about no effect; nearly all actives have a fitted effect of over 55% in size; growth read by luminescence after 48 h
# Marburg entry inh – qHTS for inhibitors of binding or entry into cells for Marburg Virus; 1.8% of 300,000 active; Marburg virus pseudotyped entry inhibition, cell reporter; control for the full effect not named in the record; about a third of the inactives were read at about 46 µM; Potency, µM (titrated, usually from 37.8 µM), for the others: top-dose activity change, negative = inhibition, usual class: inhibitors; AID 540276, 2011; active = well fitted inhibition curve with a large enough effect; inconclusive = small, poorly fitted or top-dose-only effect, or effect the other way; inactive = flat fitted curve, though single readings scatter; tested in HEK293 cells; about a fifth of its hits are not listed in these tables; further: on the % scale 0 is the no-effect control and ±100 the full control effect; luciferase read-out
# 2A StopGo – High Throughput Screening for Foot and Mouth Disease Virus Antivirals; human cells with a luciferase reporter of 2A StopGo recoding; control for the full effect not named in the record; Potency, µM (top dose mostly 57.9 µM), for inactives: top-dose signal change, negative = less light; 1.2% of 410,000 active; AID 1159524, 2015; active = well fitted falling curve with a large enough effect; inconclusive = small, poorly fitted or top-dose-only effect; inactive = no such curve, though single readings can be large or run the other way; tested in HEK293T cells; further: on the % scale 0 is the no-effect control and ±100 the full control effect; nearly all actives have a fitted effect of over 45% in size; luciferase light after 4 h
# NS1 inh – qHTS Assay for Inhibitors of Influenza NS1 Protein Function; S. cerevisiae slowed by influenza A NS1, growth recovery by OD600; Potency, µM (doses to about 46.1 µM), without a hit: top-dose activity, positive = more growth; 0.4% of 270,000 active; AID 2326, 2010; active means well fitted rising curve with a large enough effect; inconclusive means small, poorly fitted or top-dose-only effect; inactive means no such curve, though single readings can be large or run the other way; further: nearly all actives have a fitted effect of over 50% in size
#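 OD600 was taken as the measure of yeast growth restored by compound in an NS1-expressing S. cerevisiae strain. Cells had been washed out of glucose medium and diluted 1:100 into galactose -URA medium, pH 6.0.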
# The depositor's hits bear a star; ? = inconclusive; nt = not tested or not shown; & = joins results of further samples; [ ] = dose if it differs, or a comment. Unless noted, the call rests on the fitted dose curve; in most records, active means well fitted curve in the direction sought with a large enough effect; inconclusive means small, poorly fitted or top-dose-only effect, or another doubt; inactive means no such curve, though single readings can be large; an effect the other way counts as inactive or inconclusive. Potency means the concentration at half of the fitted maximal effect.
# Sequence of screens – RE007 growth inh | Cruzain inh Det | LASV entry inh | Cruzain inh noDet | SARS PLP yeast | Marburg entry inh | 2A StopGo | NS1 inh
CS(=O)(=O)NCC(c1ccco1)N1CCN(c2ccccc2)CC1 (stereo not given)
  nt | -0.5% | 7.1%[46.1 µM] | -7.6% | nt | nt | -13.5% | nt
Cc1ccc(S(=O)(=O)Nc2ncc(C(F)(F)F)cc2Cl)cc1
  -9.3% | nt | 4.9% | nt | -1.1% | 4.9%[46.1 µM] | -5.3% | -59.9%
COC(=O)C(C)(C)ONC(=O)Nc1ccccc1
  -11.5% | 0.4% | 24.8% | -6.4% | 10.7% | ? | -2.1% | -2.2%
O=C(CSc1nnc2c3ccccc3c3ccccc3c2n1)Nc1ccccc1
  nt | -4.0% | nt | 3.98µM* | 1.4% | nt | nt | -11.0%
O=C(/C=C/c1cccc(F)c1)N1CCN(c2ccccn2)CC1
  -15.4% | nt | 20.6% | nt | -1.6% | 12.3% | 14.0% | 4.8%
Nc1nc(SCc2nnc(SCC(=O)O)n2-c2ccccc2)nc2sc3c(c12)CCCC3
  3.6% | -3.3% | 11.4% | -1.1% | 2.0% | 6.6% | -0.1% | 9.9%
Cc1nn(-c2ccccc2)c(OC(=O)c2ccccc2Br)c1S(=O)(=O)c1ccccc1
  nt | -2.3% | 25.3%[46.1 µM] | 0.4% | nt | -9.4%[46.1 µM] | -8.0% | nt
COc1cc2c(cc1OC)CN(CC(=O)Nc1ccc(C)c(S(=O)(=O)N3CCOCC3)c1)CC2
  3.9% | nt | nt | nt | 9.5% | nt | -1.7% | -12.9%
O=C(/C=C/c1ccccc1)OCc1cnc(Cl)s1
  -2.0% | nt | nt | nt | 0.2% | nt | -2.2% | -5.1%
COc1ccccc1CNC(=O)c1cn(C)c(=O)c2cc(OC)c(OC)cc12
  -14.3% | 6.9% | 5.2% | ? | 13.0% | ? | -11.1% | 8.2%
Cc1ccc(Cl)cc1NS(=O)(=O)c1ccc2oc(=O)c3ncn(C)c3c2c1
  nt | -5.6% | -14.6%[46.1 µM] | 20.4% | nt | nt | -15.3% | nt
CCSc1nc2sc3c(c2c(=O)n1CC)CCC3
  2.2% | nt | nt | nt | -2.6% | nt | -0.3% | -4.7%
CCN(CC)CCNC(=O)c1ccc(NC(=O)c2ccc(COc3ccccc3)cc2)cc1
  6.3% | nt | 16.1%[46.1 µM] | nt | -3.3% | ? | -5.8% | 10.1%
O=C(Nc1sc2c(c1-c1nc3ccccc3[nH]1)CCCC2)C1CC1
  2.6% | 3.2% | 0.5% | 25.1µM* | 3.5% | -11.1% | 6.3% | 21.1%
CC(C)OC(=O)c1cccc(NC(=O)CSc2nnc(N)s2)c1
  9.6% | nt | -3.1% | nt | 1.5% | 7.4% | 4.5% | nt
COc1cccc(CNC(=O)COc2cccc(-n3cnnn3)c2)c1
  -13.5% | nt | 6.6% | nt | 2.3% | ? | -18.2% | nt
CSCCC1NC(=O)N(CC(=O)Nc2ccc(Br)cc2Br)C1=O (stereo not given)
  7.0% | nt | nt | nt | 0.3% | nt | -11.7% | 6.1%
CCOC(=O)C1CCN(c2c(NCc3ccc(C(=O)NC4CCCC4)cc3)c(=O)c2=O)CC1
  1.1% | -4.1% | nt | 19.0% | -2.4% | nt | -20.9% | 2.1%
COc1ccc(CCC(=O)NCc2ccc3c(c2)CCN3C(=O)c2ccc(F)cc2)cc1
  nt | 0.7% | 14.5%[46.1 µM] | 2.7% | nt | nt | 0.5% | nt
S=C(Nc1ccc(Cl)cc1)NC1CC2CCCC(C1)N2C1CCCC1 (stereo not given)
  -1.2% | 1.2% | ? | 2.5% | 3.3% | ? | nt | 5.3%
CC1=NN(C(=O)CCc2ccc3c(c2)OCO3)C(O)(C(F)(F)F)C1 (stereo not given)
  -2.8% | nt | nt | nt | -0.2% | nt | -14.1% | -0.1%
Cc1ccccc1NC(=O)c1ccc(-c2ccc(Cl)cc2Cl)o1
  4.5% | -9.4% | 8.0% | -3.5% | -17.6% | -9.9%[46.1 µM] | 6.4% | -66.4%
O=C1C(c2ccc(C(F)(F)F)cc2)=C(Nc2ccc(Cl)cc2)c2ccccc21
  nt | -1.2% | -4.8%[46.1 µM] | 1.5% | nt | -21.5%[46.1 µM] | -25.5% | nt
O=S(=O)(NCCN1CCCC1)c1ccc(C(F)(F)F)cc1
  -7.4% | nt | nt | nt | -0.6% | nt | -8.3% | -2.4%
O=C(Nc1ccccc1)C1CC(=O)n2ncnc2N1 (stereo not given)
  2.2% | 6.0% | ? | 4.6% | -7.1% | 3.4% | -5.8% | 4.6%
CN(C)S(=O)(=O)c1ccc(N2C(=O)CC2(/C=C/c2ccccc2)C(=O)NC2CCCC2)cc1 (stereo not given)
  2.3% | -6.9% | -3.1% | ? | 8.2% | ? | 0.4% | 13.8%
Cc1cc(OC(C)C(=O)N(Cc2ccco2)Cc2ccco2)cc(C)c1Cl (stereo not given)
  nt | -7.5% | 8.3%[46.1 µM] | 13.4% | nt | ? | ? | nt
Cc1ccc(C(=O)O)cc1-n1c(=O)n(Cc2ccccc2)c(=O)c2[nH]cnc21
  2.4% | nt | 1.9% | nt | -0.3% | ? | 4.2% | -2.6%
COc1ccccc1NC(=O)c1cc2ccccc2o1
  -4.1% | -7.4% | -29.4% | -0.5% | -17.8% | ? | 27.0% | -12.9%
Fc1ccccc1NC(=S)N(CCCN1CCOCC1)Cc1cccnc1
  4.6% | nt | 1.6% | nt | 3.8% | 3.6%[46.1 µM] | -8.9% | nt
COc1cccc(N2CCN(c3ccc4nnc(CCC(=O)O)n4n3)CC2)c1
  nt | -3.0% | 15.7%[46.1 µM] | 4.0% | nt | -6.9%[46.1 µM] | -19.4% | nt
COc1ccc(-c2nc3n(n2)C(c2ccccc2)C2=C(CCCC2=O)N3)cc1OC (stereo not given)
  -1.3% | -5.8% | -2.2% | 15.4% | ? | -0.5% | 8.1% | -13.0%
Cc1nc2c(-c3ccc(F)cc3)c(C)nn2c(C)c1CCC(=O)N1CCN(c2ccccn2)CC1
  11.8% | -6.7% | nt | ? | 15.3% | nt | -1.9% | -43.7%
CCOc1ccc(S(=O)(=O)NCCN2CCOCC2)c2ccccc12
  1.2% | -0.8% | -8.8% | -4.9% | -5.2% | 15.5% | nt | 9.3%
O=[N+]([O-])c1ccccc1OCCCOc1cccc2cccnc12
  -18.2% | nt | -23.8%[46.1 µM] | nt | 0.0% | ? | 32.0%[activator] | -29.8%
Cc1ccc(-c2nnc3ccccc3c2C(=O)Nc2cccc(Cl)c2)cc1
  nt | 0.3% | ? | ? | nt | nt | 37.8%[activator] | nt
CCOc1ccccc1N1C(=O)NC(=O)C(CCc2ccncc2)(CCc2ccncc2)C1=O
  22.5% | -1.6% | -2.1% | 6.2% | -4.6% | -3.9% | 9.6% | -3.3%
CCN1CCN(C(=O)C(C)Nc2cc(Cl)c(OC)cc2OC)CC1 (stereo not given)
  -5.2% | nt | 5.8% | nt | 1.5% | -2.3%[46.1 µM] | 3.5% | nt
O=C(CCCc1ccccc1)Nc1nnc(C(F)(F)F)s1
  -9.9% | nt | -4.9% | nt | 0.8% | -9.2%[46.1 µM] | ? | -5.1%
CCCOc1ccc(N2CC(C(=O)Nc3ccccc3C(=O)NC)CC2=O)cc1 (stereo not given)
  12.9% | nt | 0.2%[46.1 µM] | nt | 19.8% | -0.9%[46.1 µM] | -2.1% | -0.2%
Cc1onc(-c2c(F)cccc2Cl)c1C(=O)Nc1ccc(S(=O)(=O)Nc2ncccn2)cc1
  -3.2% | -0.1% | 19.9% | -9.9% | 1.2% | 3.4% | -5.5% | -11.0%
CCOC(=O)N1CCN(C(=O)C(c2ccccc2)c2ccccc2)CC1
  -4.1% | 2.3% | -26.7% | -10.5% | -3.0% | -10.8% | -14.0% | -7.8%
COc1ccc(C2CC(=O)Oc3cc(OC)c(OC)c(OC)c32)cc1 (stereo not given)
  -7.0% | -2.5% | nt | 0.8% | -12.8% | nt | -21.5% | nt
CC(C)(C)c1o[nH]c(=O)c1C[C@H](N)C(=O)O
  nt | -1.7% | nt | 4.9% | nt | 11.7%&11.7% | -10.8% | nt
CC(C(=O)NCc1cccs1)N1CCN(S(=O)(=O)c2ccc3c(c2)OCCCO3)CC1 (stereo not given)
  1.4% | nt | -6.9% | nt | 2.5% | ? | -23.8% | nt
COc1cccc(N2C(=O)C(O)=C(C(C)=O)C2c2ccc(OC)c(OC)c2)c1 (stereo not given)
  19.8% | -0.3% | 19.2% | 0.9% | -1.6% | 7.3% | 20.8% | 14.9%
O=c1oc(-c2ccccc2NS(=O)(=O)c2ccccc2)nc2ccccc12
  -4.1% | -4.8% | 6.4% | -24.1% | 2.8% | 4.5% | -22.0% | 20.1%
Cc1cc2c(cc1C)N(C(=O)CCl)CCN2C(=O)CCl
  -2.7% | nt | ? | nt | nt | ? | 8.91µM* | nt
CC(C)(C)NC(=O)NC(=O)COC(=O)c1cc[n+]([O-])cc1
  0.9% | nt | 15.8%[46.1 µM] | nt | -0.6% | 0.5%[46.1 µM] | -11.1% | nt
Cc1ccc(-n2nc(C)c(=O)c(-c3ccccc3)c2NC(=O)c2cccs2)cc1
  6.0% | nt | nt | nt | -0.1% | nt | -10.0% | -5.0%

# Structures above that contain a tert-butyl group (two):
# Sequence of screens – RE007 growth inh | Cruzain inh Det | LASV entry inh | Cruzain inh noDet | SARS PLP yeast | Marburg entry inh | 2A StopGo | NS1 inh
CC(C)(C)c1o[nH]c(=O)c1C[C@H](N)C(=O)O
  nt | -1.7% | nt | 4.9% | nt | 11.7%&11.7% | -10.8% | nt
CC(C)(C)NC(=O)NC(=O)COC(=O)c1cc[n+]([O-])cc1
  0.9% | nt | 15.8%[46.1 µM] | nt | -0.6% | 0.5%[46.1 µM] | -11.1% | nt
